Assay outcomes from PubChem.
TRPV1 potentiator: enhances activation of the human vanilloid receptor TRPV1. Q8NER1. TRPV1-expressing cells, Fluo-8 calcium influx, capsaicin EC20 potentiation; host cell line not named in the record; control for the full effect not named in the record. potentiation, % at 8.33 µM. hit rate 0.02% among 320,000. AID 540277; active means potentiation above 80%; inconclusive means 30% to 80%; inactive means below 30%; note: 0% is about no effect
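TRPV1-expressing cells were cultured overnight at 35.5C and loaded with Fluo-8 calcium dye for 40 to 90 min at room temperature. After a 10 s baseline, compound was added and calcium influx was read kinetically for 3 min (ex 480/em 520 nm).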
D2 PAM: potentiates the human D2 dopamine receptor allosterically. potentiation, % (no concentration beside the values). P14416. hit rate 0.23% among 360,000. DiscoveRx D2 beta-arrestin cells, luminescence, 90 min; 100% = 57 uM dopamine signal; active = potentiation of 50% or more; inconclusive = 30% to 50%; inactive = 30% or less;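 note: compound concentration not given in the record; tested on top of an EC20 dose of dopamine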
Target sequence (P14416 whole entry, looked up): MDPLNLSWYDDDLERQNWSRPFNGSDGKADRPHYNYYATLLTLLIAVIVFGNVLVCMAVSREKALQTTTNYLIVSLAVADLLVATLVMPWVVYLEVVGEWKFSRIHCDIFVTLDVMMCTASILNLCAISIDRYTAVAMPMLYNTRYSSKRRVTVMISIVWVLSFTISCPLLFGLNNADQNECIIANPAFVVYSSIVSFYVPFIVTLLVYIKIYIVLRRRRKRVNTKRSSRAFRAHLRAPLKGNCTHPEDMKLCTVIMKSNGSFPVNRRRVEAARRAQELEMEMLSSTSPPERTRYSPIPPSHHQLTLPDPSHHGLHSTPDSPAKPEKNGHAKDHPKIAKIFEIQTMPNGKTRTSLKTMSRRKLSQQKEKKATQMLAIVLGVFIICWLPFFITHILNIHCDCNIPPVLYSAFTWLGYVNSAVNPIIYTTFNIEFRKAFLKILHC
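D2 cells co-treated with compound plus 50 nM dopamine (EC20) for 90 min at 37 deg C to detect potentiation. Beta-arrestin recruitment was read as enzyme-fragment luminescence after 1 h at ambient temperature. Full response was set by 57 uM dopamine.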
Six1-Eya2 blk: blocks human Six1 binding to Eya2 | AID 651725 | activity change, % (no concentration beside the values) | AlphaScreen GST-Six1/His-Eya2 binding, biochemical; stronger effect = lower value; control for the full effect not named in the record | hit rate 0.56% among 360,000; in the data active = activity change below about -65%; inconclusive = about -30% to -65%; inactive = above about -30%; note: % is set by controls: 0 for no effect and ±100 for the full control effect; compound concentration not given in the record
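Six1/Eya2 binding was read as AlphaScreen signal after compounds were pinned into GST-Six1 plus His-tagged Eya2 (5X stock 250/500 nM) in pH 8.0 Tris/NaCl/TCEP buffer, beads added, then incubated 1 h, 37 C, dark.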
CtBP-E1A inh: inhibitors of CtBP/E1A interaction | AlphaScreen GST-E1A/His-CtBP binding, 1536-well; stronger effect = lower value; control for the full effect not named in the record | activity change, % (test concentration not listed) | hit rate 0.49% among 340,000; in the data active means activity change below about -65%; inconclusive means about -30% to -65%; inactive means above about -30%; note: % is set by controls: 0 for no effect and ±100 for the full control effect; compound concentration not given in the record
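Homogeneous bead-based format: GST-tagged E1A captured on glutathione donor beads, His-tagged CtBP on nickel acceptor beads; compounds precede bead addition by 2 h at 37 °C.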
D2 ag: agonists of human D2 dopamine receptor (beta-arrestin). P14416. DiscoveRx PathHunter D2 beta-arrestin, luminescence, 90 min; 100% = 57 uM dopamine signal. activation, % (no concentration beside the values). hit rate 0.084% among 360,000. AID 624465; in the data active = activation above about 40%; inconclusive = about 15% to 40%; inactive = below about 15%; note: compound concentration not given in the record; the text of the record calls up to 30% inactive
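DiscoveRx PathHunter D2 beta-arrestin cells (2,100/well) attached overnight, then compound-stimulated 90 min at 37 C in HBSS/10 mM HEPES/0.1% Tween-20 buffer; beta-galactosidase complementation read by luminescence after 1 h at ambient temperature. Dopamine 57 uM final (EC100) as control.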
Sfp PPTase inh: Sfp phosphopantetheinyl transferase inhibition. Q9F4F7. Biochemical Sfp PPTase activity, qHTS. Potency, µM, inactives show max response, negative = inhibition, usual class: inhibitors. hit rate 3.5% among 310,000; active = well fitted inhibition curve with a large enough effect; inconclusive = small, poorly fitted or top-dose-only effect, or another doubt; inactive = no such curve, though single readings can be large or run the other way;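 note: the enzyme is Sfp with the accession as filed and its product quenches rhodamine fluorescence; potency is the fitted concentration of half-maximal effect; 0% = enzyme reaction without inhibitor and -100% = no enzyme wells; top concentration of the series not given in the record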
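Fluorescence-quenching assay: 15 nM Sfp-PPTase preincubated 15 min at room temperature with compound, then 5 uM rhodamine-CoA and 12.5 uM BHQ-2-labelled YbbR peptide added. Fluorescence (ex 525/em 598 nm) read at start and after 30 min; difference gives rate.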
PINK1 expr mod: changes PINK1 expression; PINK1 immunofluorescence, high-content cytometry, 24 h; Potency, µM (top dose mostly 76.6 µM), for the others: top-dose activation (PINK1 increase), most hits filed as activators; hit rate 0.2% among 410,000; active = well fitted activation curve with a large enough effect; inconclusive = small, poorly fitted or top-dose-only effect; inactive = flat fitted curve, though single readings scatter; cell line not stated here;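 note: potency is the fitted concentration of half-maximal effect; % of control where 0% means no effect; nearly all actives have a fitted effect of over 65% in size; a mitochondrial uncoupler was the plate control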
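Decision-based qHTS: stable cells, 24 h exposure to five compound concentrations, CCCP as control. Fixed cells stained for PINK1 plus nuclear, mitochondrial and cell markers, cytometer read.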
Numbers without * were called inactive; ? = inconclusive; / = not tested or not shown; & = joins results of further samples; [ ] = another dose, or the depositor's remark.

SMILES	TRPV1 potentiator	D2 PAM	Six1-Eya2 blk	CtBP-E1A inh	D2 ag	Sfp PPTase inh	PINK1 expr mod
Cc1ccc(CSCCNC(=O)c2cccc([N+](=O)[O-])c2)cc1	17.9	-14.2	-1.4	-17.0	0.0	?	-2.0%
COc1cccc(S(=O)(=O)N(C)C[C@H]2OCc3cnnn3CCCC(=O)N([C@H](C)CO)C[C@H]2C)c1	/	-4.1	-17.6	-8.3	-4.0	/	4.3%
Nc1nc(SCc2ccc(Br)cc2)n[nH]1	-15.0	0.4	-1.4	0.0	3.3	6.6%	1.9%
Cc1cc(C(=O)OCC(=O)N2CC(=O)Nc3ccccc32)c(C)n1-c1ccccc1	6.1	-5.7	-24.3	-11.3	0.0	-7.8%	0.7%
Cc1[nH]c2ccccc2c1C(=O)COC(=O)C1CC(=O)N(Cc2ccccc2)C1 (stereo not given)	-0.3	-21.6	-3.4	-0.1	-1.2	-0.3%	1.1%
O=C1c2ccccc2C(=O)N1CCCC(=O)N1CCCc2ccccc21	-12.0	5.5	4.9	6.8	-0.8	4.6%	0.2%
COc1cccc(NC(=O)c2nnn(Cc3ccc(Br)cc3F)c2N)c1	?	2.5	-2.2	-1.1	4.0	10.6%	?
CC(C)CNc1oc(-c2ccco2)nc1C#N	-12.1	-25.5	-16.4	-6.9	-3.2	4.6%	1.0%
O=C(NCc1ccc(Cl)cc1)c1cccc(S(=O)(=O)N2CCCC2)c1	-11.9	-0.5	18.2	2.9	-0.6	/	-0.7%
CCOC(=O)c1cc(=O)c2ccc(OCc3ccccc3)cc2o1	-0.1	-4.4	4.7	3.8	0.3	4.7%	1.1%
O=C(CCC(=O)c1cccs1)OCC(=O)c1ccc(F)cc1	/	-12.3	11.0	9.0	-2.7	/	1.0%
COc1cc(/C=C/C(=O)Nc2nc3ccc(S(=O)(=O)NC(C)C)cc3s2)cc(OC)c1OC	4.0	-7.0	1.6	-1.4	-0.6	12.7%	2.4%
CCCN(CCC)CCNC(=O)c1cc2c(C)nc3ccccc3c2o1	-1.7	-10.2	-7.2	-8.5	1.1	13.4%	9.9%[38.3 µM]
COc1ccccc1C1C(C(C)=O)=C(C)N=c2s/c(=C\c3cc(OC)c(OC)c(OC)c3)c(=O)n21 (stereo not given)	8.3	16.1	-1.2	-3.0	2.2	0.5%	5.7%
Cn1c(CSc2nnc(SCc3ccccc3)s2)nc2ccccc21	20.4	-4.8	-0.6	0.9	0.5	8.9%	6.1%[38.3 µM]
COc1ccc(-c2nc3ccc(N4CCCC4)cc3c(=O)[nH]2)cc1OC	-1.1	-11.2	-10.9	-5.0	-3.2	-1.6%	4.9%
CCc1noc(C)c1C(=O)Nc1cc(Cl)ccc1N1CCCC1	-16.6	-2.2	1.1	8.7	-5.7	/	1.3%
Cc1ccc2cn[nH]c2c1[N+](=O)[O-]	3.2	-2.6	5.2	0.4	-1.6	15.6%	-0.6%
COCCNc1nc(-c2ccccc2)nc2c1oc1ccccc12	-19.9	-4.4	-13.3	5.8	-2.8	-2.7%	5.6%
O=C(O)C1CC=C(Cl)CC1C(=O)NC1CCCCC1 (stereo not given)	6.4	11.0	11.5	6.6	0.0	13.2%	1.6%
CCS(=O)(=O)N1Cc2ccccc2CC1C(=O)N1CCN(c2cccc(C)c2C)CC1 (stereo not given)	18.5	-0.6	-5.1	-3.1	-2.5	-13.5%	-1.5%
NC(=O)CSc1ccc(-c2ccc(F)cc2)nn1	2.4	12.8	7.1	/	3.2	20.4%	-1.2%
COc1cccc(C(=O)COC(=O)CCC(=O)NC2CCCCC2)c1	-0.4	-10.4	3.7	/	-4.9	9.3%	1.4%
O=C(CCn1cccc1)Nc1ccc(OC(F)(F)F)cc1	-18.2	-3.9	-7.8	-8.8	-3.4	8.7%	3.0%
COc1cccc(CNC(=O)CCC2CCCN(C(=O)c3cc(C)on3)C2)c1 (stereo not given)	25.8	-4.4	4.6	6.7	-1.9	6.2%	1.3%

3 entries out of the list, arranged by molecular weight, high to low:
SMILES	TRPV1 potentiator	D2 PAM	Six1-Eya2 blk	CtBP-E1A inh	D2 ag	Sfp PPTase inh	PINK1 expr mod
O=C(O)C1CC=C(Cl)CC1C(=O)NC1CCCCC1 (stereo not given)	6.4	11.0	11.5	6.6	0.0	13.2%	1.6%
Nc1nc(SCc2ccc(Br)cc2)n[nH]1	-15.0	0.4	-1.4	0.0	3.3	6.6%	1.9%
NC(=O)CSc1ccc(-c2ccc(F)cc2)nn1	2.4	12.8	7.1	/	3.2	20.4%	-1.2%

(cont.)
SMILES	TRPV1 potentiator	D2 PAM	Six1-Eya2 blk	CtBP-E1A inh	D2 ag	Sfp PPTase inh	PINK1 expr mod
CCN1/C(=C/C(=O)c2ccco2)Sc2ccccc21	?	-21.7	2.2	2.8	1.0	50.1µM*	-1.4%
O=C(O)Cc1sc(Nc2ccccc2)nc1-c1cccs1	-13.5	-11.5	3.0	-10.0	-1.4	50.1µM*	0.5%
Cc1ccc(S[C@@H](CCN2CC[C@H](O)CCC2=O)c2ccccc2)cc1	-21.2	2.4	0.9	/	1.2	?	-0.1%
CCN1CN(Cc2ccco2)CNC1=S	8.0	-5.0	-5.5	-24.3	-4.7	-5.3%	0.0%
CN(Cc1ccon1)C(=O)CC1C(=O)NCCN1CC1CCCCC1 (stereo not given)	6.7	-3.0	3.8	1.6	-2.1	4.7%	9.9%
CCCCNC(=O)CSc1nc2cc3c(cc2c(=O)n1CCCN(CC)CC)OCO3	-8.1	-15.5	-1.9	-0.3	-4.6	11.5%	-3.9%
Cc1ccccc1OCC(=O)NNC(=O)Cc1ccc(S(=O)(=O)N2CCOCC2)s1	?	-15.8	1.3	-5.3	-0.8	/	-2.7%
CC1O[C@@H](O[C@H](C)CC[C@@H](C)O[C@H]2OC(C)[C@@H](O)C[C@H]2O)C(O)C[C@H]1O (stereo not given in full)	-13.6	-6.5	2.2	6.3	-1.1	/	0.7%
COC(=O)C1=C(C(=O)OC)SC2(S1)C(C(=O)OC)=C(C(=O)OC)SC1=C2c2cccc(C)c2NC1(C)C	6.3	-4.8	-5.6	-21.6	-3.2	2.8%	?
O=C(CSc1ncnc2sccc12)NC1CCS(=O)(=O)C1 (stereo not given)	/	-7.7	17.4	-11.6	-2.6	/	-0.3%
CCCC1S/C(=N/N=C/c2ccco2)NC1=O (stereo not given)	-8.1	-19.4	-6.6	-1.7	-1.9	-5.2%	0.2%
Cc1nc2c(c(N3CCOCC3)n1)OCC(=O)N2	2.2	-0.9	-0.7	4.8	-0.5	8.7%	1.7%
CN(C(=O)c1nn(C)c2c1CSc1ccccc1-2)c1ccc(F)cc1	9.3	-17.2	-2.1	-4.4	-5.0	2.8%	-1.0%
Cc1cccc(N=Nc2c(O)[nH]c3ccc(F)cc23)c1	-1.9	-24.0	-1.5	1.6	-6.5	9.5%	13.5%
O=C(Nc1ccc2c(c1)OCO2)c1ccccc1SCC(=O)N1CCCC1	-10.9	-11.8	2.1	7.5	-2.0	-2.3%	-0.6%
CC1Cc2c([nH]c(=O)n(-c3ccccc3)c2=O)O1 (stereo not given)	/	3.2	6.4	-2.0	-0.1	/	1.0%
C/C(=N/NC(=O)CSc1nc2ccccc2s1)c1ccncc1	25.3	-6.9	1.3	9.1	1.4	5.9%	3.8%
NNC(=O)CNC(=O)C12CC3CC(CC(C3)C1)C2	7.1	-0.4	-1.2	0.8	-0.9	0.8%	2.6%
O=C(CN1CCN(S(=O)(=O)c2cc(C(F)(F)F)ccc2Cl)CC1)N1CCc2ccccc2C1	-5.9	-13.7	-9.2	/	-3.5	/	3.8%
O=C(Nc1ccc(N2CCN(C(=O)c3ccco3)CC2)c(Cl)c1)c1cc2ccccc2o1	0.7	?	-7.1	-5.3	10.1	-7.1%	-2.1%
CCN(CC(=O)Nc1ccc(NC(C)=O)cc1)C(=O)c1ccc2ccccc2c1	18.8	2.9	7.8	-22.2	1.6	/	-0.5%
O=C(O)CCCN1C(=O)/C(=C\c2ccccc2OCc2ccccc2)SC1=S	-8.3	6.4	-5.3	-12.7	9.4	1.4%	3.7%
CCN(CCO)C(=O)c1ccc2oc(Cc3ccc(Cl)cc3)nc2c1	-5.4	-1.3	4.4	-4.4	-3.3	19.8%	-0.4%
CC(=O)C1C(c2ccc(F)cc2)c2c(noc2C)CC1(C)O (stereo not given)	13.3	-2.1	-1.0	-13.5	1.0	3.1%	-0.1%
O=C(C1CCCO1)N1CCN(S(=O)(=O)c2ccc(Br)cc2)CC1 (stereo not given)	14.2	-6.9	0.3	1.1	-3.8	-3.5%	1.2%

Next part:
SMILES	TRPV1 potentiator	D2 PAM	Six1-Eya2 blk	CtBP-E1A inh	D2 ag	Sfp PPTase inh	PINK1 expr mod
COc1ccc(Cl)cc1NC(=O)CN(C(=O)c1ccco1)C1CCCCC1	2.0	7.5	-8.4	-1.5	-2.7	4.3%	-1.1%
N#CCc1ccc(NC(=O)Cn2c(=O)oc3ccccc32)cc1	3.6	-2.1	0.9	10.0	4.4	13.8%	-1.0%
N#Cc1cc(-c2ccccc2)nnc1Sc1ccccc1	18.0	-36.4	-4.1	-7.4	-2.9	12.9%	1.9%
Cc1ccc(-c2nn(CC(=O)NCc3cc(-c4nn(C)c(=O)c5ccccc45)ccc3C)c(=O)c3ccccc23)cc1	2.7	-2.5	2.3	3.2	-2.8	14.5%	1.8%
CN(C)/C=C/C(=O)c1cnc(-c2ccc(Cl)cc2)s1	-10.8	-2.1	-0.1	/	9.8	7.5%	1.3%
COC(=O)CN1C(=O)C2(C(C#N)=C(N)Oc3cc(C)oc(=O)c32)c2ccccc21 (stereo not given)	6.0	12.9	-2.5	2.8	0.6	13.4%	0.1%
Cc1ccccc1CSCC(=O)NNC(=S)NCC1CCCO1 (stereo not given)	-1.7	-9.5	-2.0	-2.3	-2.8	0.1%	2.2%
O=C(NCc1ccccc1F)C(c1ccccc1)c1ccccc1	9.7	0.0	2.6	1.9	-7.0	19.1%	1.3%
O=S1(=O)CCOC[C@H](Cc2ccccc2)N1Cc1ccccc1Br	/	1.1	5.4	/	-2.1	/	1.8%
Clc1nc2c(ccc3ccccc32)[nH]1	8.1	-19.8	-0.9	/	-2.3	9.1%	0.5%
CC(OC(=O)CC1Sc2ccccc2NC1=O)C(=O)N(C)Cc1ccccc1 (stereo not given)	/	2.7	9.6	-13.5	2.2	/	0.2%
CC(CNC(=O)CCS(=O)(=O)c1cc2c(cc1Cl)NC(=O)CO2)c1ccccc1 (stereo not given)	-10.0	-0.4	3.6	11.0	4.1	1.8%	1.2%&0.3%
